# Source: PubChem (National Center for Advancing Translational Sciences (NCATS))
# gsp ag: activates gsp, the McCune-Albright syndrome mutation | 0.13% of 340,000 active | gsp mutant cells, cAMP HTRF, 30 min; control for the full effect not named in the record | Potency, µM (series often up to 76.9 µM), inactives show at the highest dose activation (cAMP increase), most hits filed as activators | AID 624287; active = well fitted activation curve with a large enough effect; inconclusive = small, poorly fitted or top-dose-only effect, or another doubt; inactive = no such curve, though single readings can be large or run the other way; cell line not stated here;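 also: phosphodiesterase inhibitor Ro 20-1724 added with compounds to block cAMP breakdown; potency is read from the fitted curve at half-maximal effect; nearly all actives have a fitted effect of over 60% in size; about a fifth of the inactives were tested at one dose only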
#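 Cells stably selected in G418 were plated at 2000/well, grown 16-24 hr, then given compounds in DMSO with the PDE inhibitor […] (300 uM solution added) for 30 min at 37C; cAMP was read by HTRF.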
# D2 PAM: potentiates the human D2 dopamine receptor allosterically | P14416 | DiscoveRx D2 beta-arrestin cells, luminescence, 90 min; 100% = 57 uM dopamine signal | potentiation, % (test concentration not listed) | 0.23% of 360,000 active | AID 624464; active = potentiation of 50% or more; inconclusive = 30% to 50%; inactive = 30% or less;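 also: compound concentration not given in the record; tested on top of an EC20 dose of dopamine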
# Target sequence (P14416 whole entry, looked up): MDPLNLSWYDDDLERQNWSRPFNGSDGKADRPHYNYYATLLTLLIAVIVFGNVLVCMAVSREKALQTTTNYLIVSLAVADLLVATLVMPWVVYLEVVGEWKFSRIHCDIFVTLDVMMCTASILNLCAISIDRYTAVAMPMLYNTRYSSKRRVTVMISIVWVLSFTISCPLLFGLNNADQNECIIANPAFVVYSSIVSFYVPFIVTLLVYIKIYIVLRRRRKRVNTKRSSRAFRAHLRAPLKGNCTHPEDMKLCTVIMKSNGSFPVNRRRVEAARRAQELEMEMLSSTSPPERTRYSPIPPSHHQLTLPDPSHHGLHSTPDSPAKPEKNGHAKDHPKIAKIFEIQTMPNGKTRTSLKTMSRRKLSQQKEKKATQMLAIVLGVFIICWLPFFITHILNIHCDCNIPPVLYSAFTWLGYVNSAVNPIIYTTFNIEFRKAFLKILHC
#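 D2 cells co-treated with compound plus 50 nM dopamine (EC20) for 90 min at 37 deg C to detect potentiation. Beta-arrestin recruitment was read as enzyme-fragment luminescence after 1 h at ambient temperature. Full response was set by 57 uM dopamine.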
# Menin-MLL FL inh: menin-MLL binding inhibition, fluorescein peptide. Fluorescence polarization, fluorescein-MLL peptide displacement from menin. FP activity change, % at 61.4 µM. 290,000 tested, under 10 active. AID 1766; inconclusive = falling polarisation curve, or a change in total fluorescence; inactive = total fluorescence flat and polarisation flat or rising; no compound was filed as active; the % refers to the polarisation; negative = inhibition;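 also: % of control where 0% means no effect; inhibitors lower the polarisation; unlabelled MLL peptide was the positive control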
# Sfp PPTase inh: blocks B. subtilis Sfp PPTase activity; Biochemical Sfp PPTase activity, qHTS; Q9F4F7; 3.5% of 310,000 active; Potency, µM, without a hit: max response, negative = inhibition, most hits filed as inhibitors; active = well fitted inhibition curve with a large enough effect; inconclusive = small, poorly fitted or top-dose-only effect, or another doubt; inactive = no such curve, though single readings can be large or run the other way;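 also: the enzyme is Sfp with the accession as filed and its product quenches rhodamine fluorescence; potency is read from the fitted curve at half-maximal effect; 0% = enzyme reaction without inhibitor and -100% = no enzyme wells; top concentration of the series not given in the record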
#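 Reaction rates are the 30-min fluorescence difference (ex 525, em 598 nm) in wells containing 15 nM Sfp, 5 uM rhodamine-CoA and 12.5 uM BHQ-2-YbbR at pH 7.6 with 10 mM MgCl2.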
# ClpP mod: qHTS Assay for Activators of ClpP. 1.9% of 340,000 active. purified B. subtilis ClpP, FRET peptide cleavage, 20 min. AID 651965, 2013. Potency, µM (doses to about 57.5 µM), without a hit: at the highest dose activity change, negative = active. ATP-dependent Clp protease proteolytic subunit (Bacillus subtilis (strain 168)), P80244; active = well fitted falling curve with a large enough effect; inconclusive = small, poorly fitted or top-dose-only effect; inactive = no such curve, though single readings can be large or run the other way; also: potency is read from the fitted curve at half-maximal effect; the source files actives as falling curves though it sought activators and does not explain the sign; nearly all actives have a fitted effect of over 65% in size; many hits overshoot -100%
# Target sequence (P80244 whole entry, looked up): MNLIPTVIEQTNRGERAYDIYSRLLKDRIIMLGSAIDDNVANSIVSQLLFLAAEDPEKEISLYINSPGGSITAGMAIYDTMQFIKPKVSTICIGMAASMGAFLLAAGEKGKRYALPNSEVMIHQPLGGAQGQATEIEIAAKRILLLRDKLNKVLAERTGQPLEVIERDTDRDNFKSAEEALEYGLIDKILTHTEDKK
#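 Buffer: 100 mM Tris/HCl pH8, 100 mM KCl, 0.05% low protease BSA, 2.5% glycerol, 0.01% Tween-20. ClpP 10 microg/mL final; 20 min RT; delta FRET normalized to ADEP and DMSO controls.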
# gsp antag: antagonists of gsp mutant (McCune-Albright syndrome). 0.4% of 340,000 active. AID 624288. Potency, µM (titrated, usually from 76.9 µM), without a hit: at the top dose activity change, negative = inhibition, usual class: inhibitors. gsp-mutant cells, cAMP HTRF, 30 min; control for the full effect not named in the record; active = falling curve of any shape with a large fitted effect; inconclusive = falling curve, mostly with a smaller effect; inactive = flat or rising curve; cell line not stated here;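 also: intracellular cAMP measured with PDE inhibitor Ro 20-1724 present during compound exposure; potency is read from the fitted curve at half-maximal effect; % is scaled to controls: 0 for no effect and ±100 for the full control effect; nearly all actives have a fitted effect of over 65% in size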
#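 G418-selected cells were plated in DMEM/10% FBS for 16-24 h at 37C, then treated with compounds plus the PDE inhibitor […] (300 uM solution added) for 30 min at 37C. Intracellular cAMP was measured by HTRF after 30 min lysis at room temperature.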
# TRPV1 PAM: potentiators of human vanilloid receptor 1 (TRPV1); potentiation, % at 8.33 µM; AID 540277; Q8NER1; TRPV1-expressing cells, Fluo-8 calcium influx, capsaicin EC20 potentiation; host cell line not named in the record; control for the full effect not named in the record; 0.02% of 320,000 active; active means potentiation above 80%; inconclusive means 30% to 80%; inactive means below 30%; also: 0% is about no effect
#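 Cells expressing TRPV1 were dye-loaded with Fluo-8 and read kinetically: 10 s baseline, 3 min after compound (agonist portion), then 2 min after EC20 capsaicin (allosteric enhancer portion). Calcium-bound dye fluorescence at 480/520 nm.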
# The depositor's hits bear a star; ? = inconclusive; . = no result given; & = joins results of further samples; [ ] = another dose, or the depositor's remark.
SMILES,gsp ag,D2 PAM,Menin-MLL FL inh,Sfp PPTase inh,ClpP mod,gsp antag,TRPV1 PAM
CC(O)C(O)C(O)C(O)C1NCCS1 (stereo unspecified),?,-10,1.4,19%,0.9%,7%,-3
Cc1cccn2cc(-c3ccc(F)cc3)nc12,24%,7,0.8,1%,18µM*,6%,-14
Cc1cc(C)nc(SCc2cn3cc(Cl)ccc3n2)n1,21%[15.4 µM],-5,-0.1,7%,-0.9%,12%,20
COc1ccc(C)c(S(=O)(=O)Nc2ccc(OCC(=O)O)cc2)c1,33%,-7,-3.2,1%,-1.6%,0%,11
CCOC(=O)N1CCN(CC(O)COC2CC(C)CC(C)(C)C2)CC1 (stereo unspecified),?,-3,2.1,-7%,-1.0%,0%,-3
COc1ccc2[nH]c(C(=O)O)c(CCN3C(=O)c4cccc([N+](=O)[O-])c4C3=O)c2c1,9%,1,3.8,9%,-2.4%,-6%,7
Cn1c(SCC(=O)n2c3c(c4ccccc42)CCCC3)nnc1-c1ccccc1,0%,-9,1.1,-19%,-1.3%,-2%,4
O=C(CSc1ncn(-c2ccccc2)n1)Nc1ccc(Br)cn1,20%,-13,2.3,-25%,0.6%,9%,-13
COc1ccccc1CNC(=O)COC(=O)c1nc(Cl)ccc1Cl,8%,4,.,.,-2.6%,3%,1
NC(=S)N/N=C\c1ccccc1OCc1ccccc1,-1%,-29,6.6,-3%,-4.1%,10%,-5
CC(C)CC(=O)N1CCN(c2ccc([N+](=O)[O-])c(NCc3ccccc3)c2)CC1,-12%,5,.,.,2.5%,-28%,.
CC1CN(S(=O)(=O)c2cc(C(=O)N(CCc3ccccc3)Cc3ccccc3)ccc2Cl)CC(C)O1 (stereo unspecified),-31%[inhibitor],-18,.,.,-0.9%,?,-1
CCOc1ccc(CCN2C(=O)CCC2(C)C(=O)NC(C)CC)cc1OCC (stereo unspecified),-43%[inhibitor],-3,4.3,?,0.8%,1%,2
O=C(CSc1nc(=O)n2ccccc2n1)Nc1ccc2c(c1)OCCO2,?,-10,.,.,-0.8%,15%,-5
O=C(O)c1cccc(S(=O)(=O)Nc2ccc([N+](=O)[O-])cc2O)c1,21%,-18,-1.6,?,-1.4%,7%,1
CCn1c(SCC(=O)Nc2nc(C)c(C(=O)OC)s2)nnc1C(C)C,27%,-20,0.2,9%,-0.1%,-1%,2
Cc1ccc(C)c(NC(=O)CCc2ccc(C)o2)c1,-32%[inhibitor],0,-4.4,-3%,-0.1%,4%,-6
CCn1cc(S(=O)(=O)c2cccc(C)c2)c(=O)c2cc(F)c(N3CCN(C)CC3)cc21,?,-10,1.2,5%,?,9%,9
CCOC(=O)c1c[nH]n(-c2ccc(C)cc2)c1=O,-42%[inhibitor],-3,13,14%,.,1%,20
CC1(NC(=O)CCS(=O)(=O)c2ccc(Cl)cc2)CCS(=O)(=O)C1 (stereo unspecified),27%,-2,.,.,-2.5%,9%,-9
CCCCN(C(=O)NC(=O)Nc1cc(C)ccc1C)S(C)(=O)=O,-8%,14,-0.3,-19%,0.9%,5%,-6
COc1ccc2nc(SCC(=O)Nc3nccs3)[nH]c2c1,-104%[inhibitor],-5,0.8,-1%,0.2%,-4%,-1
CC1OC(OCC2OC(Oc3c(-c4ccc(O)cc4)oc4cc(O)cc(O)c4c3=O)C(O)C(O)C2O)C(O)C(O)C1O (stereo unspecified),.,-9,-2.3,11%,1.0%,6%,8
Cc1ccc(CNC(=O)Cn2c(=O)c3sccc3n(Cc3cccc([N+](=O)[O-])c3)c2=O)cc1,.,.,1.5,-12%,.,.,-23
O=[N+]([O-])c1ccc(N2CCN(c3ccc(Cl)nn3)CC2)c(Cl)c1,-12%,-11,9.3,-2%,-0.4%,-2%,-1

# (next part)
SMILES,gsp ag,D2 PAM,Menin-MLL FL inh,Sfp PPTase inh,ClpP mod,gsp antag,TRPV1 PAM
O=C(CSc1nnc(Cn2c(=O)sc3ccccc32)n1-c1ccccc1)NCc1ccco1,0%,-2,-2.6,3%,2.1%,-3%,-10
Cc1cc(CN2CCCC(C(=O)Nc3ccc(-c4nc5ccccc5[nH]4)cc3)C2)n[nH]1 (stereo unspecified),-41%[inhibitor],-32,0.8,12%,3.3%,3%,1
COc1ccc(-c2cc(CN3C(=O)c4ccccc4C3=O)on2)cc1,12%,6,.,.,0.4%,24%,.
Cc1cc(C)n2nc(SCc3cccc(F)c3)nc2n1,5%[15.4 µM],-3,0.9,9%,-0.4%,13%,0
COc1ccccc1NC(=O)c1c(NC(=O)CCC(=O)O)sc2c1CCCCC2,?,-6,?,10µM*,-2.6%,-17%,.
O=C(O)CCCCCCCCCCC1CCC(O)C1O (stereo unspecified),-3%,-5,.,.,.,-7%,.
COc1ccc(-c2nc3cc(C)ccn3c2NCC2CCCO2)cc1OC (stereo unspecified),-8%,-2,.,.,-1.5%,-5%,.
O=c1cc(-c2ccco2)oc2c1ccc1ccccc12,4%[15.4 µM],-5,9.0,-4%,-0.5%,-5%,-9
CCOC(=O)c1ccc(N/C=C/C(=O)c2ccc(OC)c(OC)c2)cc1,7%,-2,2.4,3%,-5.9%,-8%,-22
CCOC(=O)c1c(-c2ccc(C)o2)csc1NC(=O)CSc1nnnn1-c1ccccc1,10%,-13,?,3.5µM*,-4.0%,-9%,-4
C=CCSc1nc2ccccc2c2nc(-c3ccccc3)nn12,-45%[inhibitor],-2,5.1,-11%,?,3%,-3
COc1ccc(/C=C2\SC(=S)N(CCC(=O)Nc3cccc(O)c3)C2=O)cc1,-19%,-1,-4.0,-3%,-2.1%,-17%,4
CCOC(=O)N1CCN(C(=O)CN(c2cccc(C)c2)S(=O)(=O)c2ccc(C)cc2)CC1,2%,-4,1.6,9%,0.4%,2%,3
COc1cccc(-c2c(C(=O)N/N=C/c3ccoc3)nnn2-c2nonc2N)c1,-2%,-5,0.5,12%,.,-3%,-15
CC1CCN(c2c(NCC3CCC(C(=O)Nc4ccccn4)CC3)c(=O)c2=O)CC1 (stereo unspecified),8%,-8,0.3,0%,-1.8%,1%,-17
COc1ccc(NC(=O)C(NC(=O)c2ccccc2)C(C)C)cc1 (stereo unspecified),-8%,-4,-0.1,-8%,-0.7%,6%,-19
CCc1cc2c(SCC(=O)c3ccc(C)cc3)ncnc2s1,9%,-1,2.8,9%,-3.3%,4%,-6
OCCCn1c(C2CCCN2c2nc(-c3ccc(Cl)cc3)cs2)nc2cc(C(F)(F)F)ccc21 (stereo unspecified),-41%[inhibitor],-7,.,.,-19%,-9%,.
O=C(/C=C/c1cccs1)c1cc(Cl)ccc1O,-3%,-11,21,-3%,0.4%,-14%,24
CCOC(=O)Cc1csc(NC(=O)c2cccc(N3C(=O)CCC3=O)c2)n1,-16%,5,0.1,12%,-0.4%,-4%,1
Cc1ccc(SCC(=O)OCC(=O)NCCc2ccc(S(N)(=O)=O)cc2)c(C)c1,6%,0,.,.,.,-2%,.
O=C(CCC1CCN(Cc2ccccc2Cl)CC1)NC1CC1,-49%[inhibitor],-31,0.9,-1%,1.2%,11%,1
CCN(CC)Cc1c(O)ccc2c(=O)c(-c3ccccc3Cl)coc12,22%,-3,1.3,-3%,.,-1%,-1
O=C(NCCc1ccc(Cl)cc1)c1cccc(S(=O)(=O)N2CCCC2)c1,?,-13,.,.,0.1%,.,.
Nc1nnc(CCCCCCCCCCc2nnc(N)s2)s1,14%[15.4 µM],-8,-1.3,1%,.,8%,-7

# Quoted at random: two compounds from above.
SMILES,gsp ag,D2 PAM,Menin-MLL FL inh,Sfp PPTase inh,ClpP mod,gsp antag,TRPV1 PAM
CCOC(=O)c1ccc(N/C=C/C(=O)c2ccc(OC)c(OC)c2)cc1,7%,-2,2.4,3%,-5.9%,-8%,-22
Cc1ccc(SCC(=O)OCC(=O)NCCc2ccc(S(N)(=O)=O)cc2)c(C)c1,6%,0,.,.,.,-2%,.

# More compounds follow.
SMILES,gsp ag,D2 PAM,Menin-MLL FL inh,Sfp PPTase inh,ClpP mod,gsp antag,TRPV1 PAM
O=C(Cn1ccc2cc(S(=O)(=O)N3CCCCC3)ccc21)NCc1ccccc1F,18%,-1,.,14%,-7.2%,-14%,-5
COCC(=O)N(C)C[C@H]1Oc2ncc(Br)cc2C(=O)N([C@@H](C)CO)C[C@H]1C,-35%,4,.,.,1.3%,.,.
O=C(O)Cc1ccc(NC(=O)c2cccs2)cc1,?,19,4.3,16%,1.3%,10%,-33
CCOCCOC(=O)c1ccc(-n2cnc(C)n2)nc1,-6%,-1,0.9,2%,1.4%,0%,0
CCc1ccc(NC(=O)COc2ccc(F)cc2C(=O)c2cnn(-c3ccccc3)c2)cc1,-19%,2,1.0,8%,-1.4%,?,-2
CCOCCCNC(=O)CCSc1ccc(C)cc1,-43%[inhibitor],-5,-0.2,19%,-0.7%,8%,26
Cc1noc(C)c1NC(=O)N(C)C[C@H]1Oc2c(cccc2N(C)C)C(=O)N([C@H](C)CO)C[C@@H]1C,.,-8,.,.,-3.6%,6%,.
CC(C)c1ccc(C2(C)NC(=O)N(CC(=O)NC3(C#N)CCCC3)C2=O)cc1 (stereo unspecified),-9%,-16,.,.,2.5%,12%,4
O=C(CC(O)(c1ccccc1)C(F)(F)F)c1cccs1 (stereo unspecified),16%,-7,-1.3,14%,-2.3%,-5%,4
COc1cccc(C(=O)Nc2ccc(F)c(F)c2F)c1,?,-10,5.7,-1%,0.1%,9%,-3
CC(=O)Nc1ccc2c(c1)nc1n2CCSC1,-6%,-8,0.6,4%,40%,11%,-3
CC(=O)N(CN1C(=O)CCC1=O)c1ccc(Cl)c(Cl)c1,-15%,-9,-2.2,19%,-0.2%,12%,-9
CC(C)n1c(SCC(=O)Nc2nncs2)nnc1-c1ccco1,20%[15.4 µM],-6,.,20µM*,2.0%,-10%,8
O=C(NNC(=O)C1C2C=CC(C2)C1C(=O)O)c1ccccc1O (stereo unspecified),-6%,-9,7.8,?,3.9%,0%,-12
COc1ccc(NC(=O)C2CCCN(S(=O)(=O)c3c(C)n[nH]c3C)C2)cc1OC (stereo unspecified),-49%[inhibitor],-3,-0.4,23%,-1.2%&-0.3%,4%,4
CC(C)NC(=O)NC(=O)COC(=O)c1ncc(Cl)c(Cl)c1Cl,16%,-1,-3.0,9%,.,-7%,10
